# YopH inh = blocks Yersinia enterocolitica YopH tyrosine phosphatase. fluorescence Ex485/Em525. inhibition, %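 (about 10 µM by stock and volumes)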. 140,000 compounds, 0.16% hits;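 active = inhibition of 50% or more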;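 note: controls were vehicle for no effect and minimum signal wells for full effect; inactives centre near -20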
# Mtb betalactam = beta-lactam sensitization of Mtb H37Rv; 330,000 compounds, 0.27% hits; inhibition, % at 25 µM; M. tuberculosis H37Rv growth with meropenem, percent inhibition; hits of this screen are not shown here;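 active = about 74% or more and at least 40 points above the plate without the antibiotic, then above 30% in a dose series; inconclusive = first-round hits that could not be retested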;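 note: growth measured after seven days incubation then overnight dye step; 0% = bacteria only wells and 100% = bacteria with antibiotic; twin plates without the antibiotic show which effects depend on it; some results filed as inactive read as strong as hits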
# Mtb H37Rv = M. tuberculosis H37Rv growth inhibitors, H37Rv strain (AID 1626). 220,000 compounds, 0.95% hits. M. tuberculosis H37Rv growth inhibition; higher % means a stronger effect. inhibition, % at 10 µM, or IC50 in µM where a hit was titrated;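 active = confirmed in a dose series; inconclusive = inhibition above 80% but not taken into the dose series; inactive = below 80% or under 30% at every dose of the series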;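 note: bacteria incubated seven days before Alamar blue readout; 0% = bacteria only wells and 100% = bacteria with antibiotic wells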
# Arbovirus inh = arbovirus infection inhibition; arbovirus infection cell-based antiviral screen; inhibition, % at 10 µM; 200,000 compounds, 0.37% hits;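 active = inhibition from about 30%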;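 note: bluetongue infection of BSR cells; cell survival read as ATP light after 72 h; 0% = infected wells without compound and 100% = uninfected wells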
# RecA splice inh = inhibitors of M. tuberculosis RecA intein splicing; cell-free RecA intein splicing, fluorescence; P9WHJ3; 290,000 compounds, 0.75% hits; inhibition, %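 (about 9 µM by stock and volumes)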; AID 2221; in the data active = inhibition above about 30%; inconclusive = no clear call, values can overlap the other calls;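 note: 0% = vehicle wells and 100% = reference inhibitor control wells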
# Target sequence (P9WHJ3 whole entry, looked up, canonical isoform): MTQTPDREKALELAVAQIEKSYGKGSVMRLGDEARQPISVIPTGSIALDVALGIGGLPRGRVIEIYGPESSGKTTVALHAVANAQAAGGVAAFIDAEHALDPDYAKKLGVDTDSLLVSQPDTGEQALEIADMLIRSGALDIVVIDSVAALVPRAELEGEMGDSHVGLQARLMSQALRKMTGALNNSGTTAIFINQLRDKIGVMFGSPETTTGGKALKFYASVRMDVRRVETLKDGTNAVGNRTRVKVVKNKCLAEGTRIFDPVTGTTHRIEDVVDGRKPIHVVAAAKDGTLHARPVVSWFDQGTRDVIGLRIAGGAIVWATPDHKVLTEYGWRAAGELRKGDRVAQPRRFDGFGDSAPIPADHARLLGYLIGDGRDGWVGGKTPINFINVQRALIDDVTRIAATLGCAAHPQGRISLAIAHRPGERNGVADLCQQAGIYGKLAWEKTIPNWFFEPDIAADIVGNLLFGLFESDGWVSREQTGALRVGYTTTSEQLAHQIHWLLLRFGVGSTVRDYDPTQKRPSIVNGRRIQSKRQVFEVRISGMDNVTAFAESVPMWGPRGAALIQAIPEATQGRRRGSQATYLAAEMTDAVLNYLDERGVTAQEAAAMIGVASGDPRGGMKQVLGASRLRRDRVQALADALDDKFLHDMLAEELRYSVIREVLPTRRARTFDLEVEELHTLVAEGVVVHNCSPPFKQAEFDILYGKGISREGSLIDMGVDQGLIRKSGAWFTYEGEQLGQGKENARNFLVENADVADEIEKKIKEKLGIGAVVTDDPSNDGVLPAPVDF
# Arbovirus inh repeat = further read-out of Arbovirus inh, marked with its call; inhibition, %; measured here: 10K subset replicate screen; many hits read low in the repeat;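 first of two repeat runs on a subset; 0% = infected and 100% = uninfected wells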
# * marks the source's active call; other numbers are inactive results; u = inconclusive; x = no result given.
SMILES,YopH inh,Mtb betalactam,Mtb H37Rv,Arbovirus inh,RecA splice inh,others
COc1ccc(NC(=S)Nc2cccc(Cl)c2)cc1OC,x,-3,3%,22,2.1,
CC(C)CNS(=O)(=O)c1ccc(CCC(=O)N2CCN(Cc3ccc4c(c3)OCO4)CC2)cc1,44,-3,1%,5,1.9,
Cc1nn(CC(=O)N2CCC(C)CC2)c(=O)c2nn(-c3ccccc3)c(C)c12,x,-4,x,x,2.8,
O=C(Cc1ccccc1)N1CCN(Cc2cccc(Cl)c2)CC1,x,-3,x,x,-3.4,
O=C(NCC(=O)N(CCc1ccccc1)C(C(=O)NC1CCCC1)c1cccnc1)c1ccco1 (stereo not given),21,-4,x,7,x,
COc1ccccc1Cc1nnnn1CC(=O)O,0,8,-5%,8,0.6,
Cc1cc(C(=O)CSc2ccc(F)cc2)cc(C)c1O,x,-1,x,x,9.8,
COc1ccc(CCN(C)Cc2c(F)cccc2F)cc1OC,-27,3,1%,-4,-6.3,
O=C(Nc1cccc(N2C(=O)C3C4C=CC(C4)C3C2=O)c1)c1cccs1 (stereo not given),x,-5,-3%,4,-1.4,
O=C(C[n+]1ccc(/C=N/O)cc1)N(Cc1ccccc1)Cc1ccccc1,x,-8,4%,-2,-1.4,
Cc1csc(SCC(=O)c2c(N)n(C)c(=O)n(C)c2=O)n1,-6,-7,x,3,-2.3,
CC1CCCN(S(=O)(=O)CCNC(=O)c2ccc3c(c2)OCO3)C1 (stereo not given),x,1,x,x,-1.5,
Clc1ccc(NC2=NCCCS2)cc1Cl,x,9,x,x,1.7,
CCOc1ccc(CCNC(=O)COC(=O)c2cc([N+](=O)[O-])ccc2N2CCOCC2)cc1OCC,x,3,x,x,6.9,
CCOC(=O)c1cc(CC)sc1NC(=O)Cc1ccccc1,-6,7,15%,8,11,
COc1ccc(C)cc1NC(=O)N1CCC(CO)(CC2CCCCO2)CC1 (stereo not given),x,5,8%,7,0.0,
Cc1ccc(-n2ncc3c2CC(C)(C)CC3NC(=O)CCN2CCCCC2=O)cc1 (stereo not given),x,0,x,x,1.2,
CC1=CC2=NC(=O)/C(=C/c3cccn3Cc3ccccc3)C(=N)N2O1,x,-7,-1%,x,x,
O=C(O)C1CC1C(=O)N1CCN(c2ccc(Cl)c(Cl)c2)CC1 (stereo not given),-20,-5,4%,2,x,
Cc1ccc(S(=O)(=O)Nc2cc3c(C(=O)Nc4ccccc4)c(C)oc3c3ccccc23)cc1,-8,1,-9%,-14,1.2,
C#CCOCCOCCOCCNc1nc(N2CCN(C(=O)[C@H]([C@@H](C)CC)n3cc([C@@H](N)CO)nn3)CC2)nc(N2CCN(C(=O)[C@H](CCCCN)n3cc([C@@H](N)C(C)CC)nn3)CC2)n1 (stereo not given in full),x,-14,0%,0,-2.1,
O=C1CC(c2ccc(Cl)cc2)c2c(O)cc(O)cc2O1 (stereo not given),x,-2,x,x,1.1,
CCN(CC)CCN(C(=O)CN1C(=O)c2ccccc2C1=O)c1nc2cc3c(cc2s1)OCO3,x,-8,x,x,-1.1,
COC(=O)c1ccc(COC(=O)CCC(=O)c2cccs2)cc1,-36,-8,6%,4,1.2,
CC(C)(CNC(=O)/C=C/c1ccc(F)cc1)CNC(=O)/C=C/c1ccc(F)cc1,-11,1,62%,27,1.0,
COc1cccc(OC)c1C(=O)NC(=S)NCc1cccnc1,x,1,x,x,-2.2,
S=c1[nH]nc(-c2ccccc2Br)n1Cc1ccccc1,x,-10,x,x,2.9,
O=C(NNC(=S)NCC1CCCO1)c1cc(Br)ccc1Cl (stereo not given),x,-5,x,x,1.8,
Cc1cc(C(=O)N/N=C/c2ccc(OC(=O)c3ccccc3Br)cc2)n[nH]1,x,-6,7%,-4,4.2,
COc1ccc(CC(=O)n2[nH]c(=O)ccc2=O)cc1OC,x,2,-10%,x,-2.3,
O=C(Nc1ccc(Cl)c(Cl)c1)Nc1ccccc1O,x,12,7%,x,x,
O=C(CBr)Nc1c2c(nn1-c1ccccc1)CSC2,x,0,x,x,0.2,
O=C(NCc1ccc(Cl)cc1)C1CCN(C(=O)Cc2ccccc2)CC1,x,u,x,x,1.9,
O=C(CC1N=C(Cc2ccccc2)NNC1=O)N/N=C/c1ccc([N+](=O)[O-])cc1 (stereo not given),x,-12,-2%,3,-0.7,
O=c1cc(CN2CCN(S(=O)(=O)c3ccccc3)CC2)nc2sccn12,x,-2,-2%,1,-0.2,
O=C1C(c2ccccc2)SC(=Nc2ccccc2)N1S(=O)(=O)c1ccccc1 (stereo not given),-10,-6,6%,1,1.4,
CCOC(=O)c1ccc(NC(=O)NNS(=O)(=O)c2cc(OC)ccc2OC)cc1,x,89,x,x,-2.0,
COC(=O)c1c(NC(=O)CC2SC(N)=NC2=O)sc(C)c1C (stereo not given),x,-3,-6%,3,-2.8,
Cc1ccc(C)c(S(=O)(=O)N2CCN(C(=O)c3cc(S(=O)(=O)NCc4ccccc4)ccc3C)CC2)c1,x,-6,x,x,0.5,
CCOc1ccc(-c2n[nH]c(C)c2-c2ccccc2OC)c(O)c1,-28,6,-9%,0,2.6,
Cc1noc2ncnc(N3CCCC3)c12,x,7,3%,0,-0.4,
COc1ccc(C(=O)N2CCOCC2)cc1S(=O)(=O)N1CCC(C)CC1,-38,-7,-3%,-2,-1.2,
CC1(C)Cc2ccccc2C(NNC(=O)c2ccccn2)=N1,-3,93,-1%,-28,-2.1,
COc1ccc(-n2cnc3c(sc4nc(N5CCOCC5)c5c(c43)CCCC5)c2=O)cc1,x,73,24%,-6,1.9,
COc1ccc(CSCCNC(=S)Nc2ccccc2)cc1Cl,x,47,38%,3,0.0,
NS(=O)(=O)c1ccc(CNC(=O)c2scc3c2CCCC3)cc1,x,3,8%,2,-0.1,
Cc1cc(C(=O)CSc2nnc(N)s2)c(C)n1Cc1cccs1,-20,u,0%,-35,-4.8,
CCCCOC(=O)c1ccc(NC(C)=O)cc1,-23,85,58%,-9,-0.8,
O=C1CCCC2=C1C(c1ccc(Cl)cc1)C1C(=O)c3ccccc3C1=N2 (stereo not given),11,9,3%,-26,-4.1,
Cc1ccccc1-c1ccc(/C=C2/SC(N3CCOCC3)=NC2=O)o1,x,56,-1%,x,-15,

# Twelve compounds already listed, ordered by heavy-atom count, descending.
SMILES,YopH inh,Mtb betalactam,Mtb H37Rv,Arbovirus inh,RecA splice inh,others
Cc1ccc(C)c(S(=O)(=O)N2CCN(C(=O)c3cc(S(=O)(=O)NCc4ccccc4)ccc3C)CC2)c1,x,-6,x,x,0.5,
COc1ccc(-n2cnc3c(sc4nc(N5CCOCC5)c5c(c43)CCCC5)c2=O)cc1,x,73,24%,-6,1.9,
O=C(CC1N=C(Cc2ccccc2)NNC1=O)N/N=C/c1ccc([N+](=O)[O-])cc1 (stereo not given),x,-12,-2%,3,-0.7,
O=C1C(c2ccccc2)SC(=Nc2ccccc2)N1S(=O)(=O)c1ccccc1 (stereo not given),-10,-6,6%,1,1.4,
COc1ccc(C(=O)N2CCOCC2)cc1S(=O)(=O)N1CCC(C)CC1,-38,-7,-3%,-2,-1.2,
Cc1ccccc1-c1ccc(/C=C2/SC(N3CCOCC3)=NC2=O)o1,x,56,-1%,x,-15,
CCOc1ccc(-c2n[nH]c(C)c2-c2ccccc2OC)c(O)c1,-28,6,-9%,0,2.6,
Cc1cc(C(=O)CSc2nnc(N)s2)c(C)n1Cc1cccs1,-20,u,0%,-35,-4.8,
COC(=O)c1c(NC(=O)CC2SC(N)=NC2=O)sc(C)c1C (stereo not given),x,-3,-6%,3,-2.8,
O=C(CBr)Nc1c2c(nn1-c1ccccc1)CSC2,x,0,x,x,0.2,
CCCCOC(=O)c1ccc(NC(C)=O)cc1,-23,85,58%,-9,-0.8,
Cc1noc2ncnc(N3CCCC3)c12,x,7,3%,0,-0.4,

# (next part)
SMILES,YopH inh,Mtb betalactam,Mtb H37Rv,Arbovirus inh,RecA splice inh,others
COc1cc(NC(=O)c2ccccc2F)ccc1NC(=O)c1ccccc1Cl,x,3,3%,-8,0.2,
Cn1nccc1C(=O)OCC(=O)Nc1nc(-c2ccccc2)cs1,-9,2,-6%,1,0.1,
O=C(c1ccncc1)N1CCN(C2CCCCC2)CC1,x,0,-20%,3,-2.1,
COc1cc2sc3ccc(C#Cc4ccccn4)cc3c(=O)c2cc1OC,x,4,-1%,x,-1.8,
COc1cc(CNCc2ccncc2)cc(OC)c1OC,x,-6,x,x,-6.1,
Cn1c(NC(=O)C[n+]2cc(-c3ccccc3)n3c2CCC3)cc(=O)n(C)c1=O,-6,9,7%,24,3.2,
CCOC(=O)c1[nH]c2ccc(OCC)cc2c1NC(=O)CN1CCCC(C)C1 (stereo not given),19,1,2%,1,-0.6,
COc1ccc(-c2nnn(CC(=O)N(Cc3ccccc3Cl)C(C(=O)NCC3CCCO3)c3ccco3)n2)cc1OC (stereo not given),-28,2,-1%,12,5.7,
COc1ccc(Cc2nc(-c3ccc(NC(=O)c4cccnc4)cc3)no2)cc1,-37,16,2%,2,1.8,
CCOC(=O)/C=C1\CC(=O)Nc2nonc2N1,24,3,-20%,-3,5.4,Arbovirus inh repeat=6

# Reprinted at random: three records from the list.
SMILES,YopH inh,Mtb betalactam,Mtb H37Rv,Arbovirus inh,RecA splice inh,others
Cn1c(NC(=O)C[n+]2cc(-c3ccccc3)n3c2CCC3)cc(=O)n(C)c1=O,-6,9,7%,24,3.2,
COc1cc(CNCc2ccncc2)cc(OC)c1OC,x,-6,x,x,-6.1,
CCOC(=O)c1[nH]c2ccc(OCC)cc2c1NC(=O)CN1CCCC(C)C1 (stereo not given),19,1,2%,1,-0.6,

# Continuation:
SMILES,YopH inh,Mtb betalactam,Mtb H37Rv,Arbovirus inh,RecA splice inh,others
O=C1C2CC=CCC2C(=O)N1c1n[nH]c(Cc2ccccc2)n1 (stereo not given),25,-4,-5%,-5,-0.8,
O=C(Nc1ccc2oc(=O)ccc2c1)c1cccnc1Cl,-8,-8,-1%,7,-2.2,
CC(C)(C)c1csc(NC(=O)c2cccs2)n1,-23,-2,-11%,28,7.7,
O=C(Nc1ccc(N2CCOCC2)nc1N1CCOCC1)c1cccc(C(F)(F)F)c1,x,-6,3%,x,-2.8,
Cn1cccc1C(C#N)c1ncc(C(F)(F)F)cc1Cl (stereo not given),x,0,4%,-3,7.3,
Cc1coc2cc3oc(=O)c4c(c3cc12)CCC4,-37,2,x,8,-1.5,
Cc1cc(=O)n2[nH]c(N)c(N=Nc3ccccc3F)c2n1,-38,74,41%,-6,3.9,
CN(CC(=O)Nc1ccc(F)c(F)c1F)C(=O)c1ccc(-n2cncn2)c([N+](=O)[O-])c1,x,-14,x,x,-3.7,
CC1Cc2ccccc2N1C(=O)CCn1c(=O)sc2ccccc21 (stereo not given),x,-3,9%,-8,6.4,Arbovirus inh repeat=-2
O=C(NCCCN1CCN(c2ccccc2F)CC1)C1CCCN(S(=O)(=O)c2cnc[nH]2)C1 (stereo not given),1,-4,x,5,-1.6,Arbovirus inh repeat=2
CC1CCCN(C(=O)CCNS(=O)(=O)c2ccc3c(c2)oc(=O)n3C)C1 (stereo not given),x,6,x,x,-3.5,
CN(C)C(=O)CSc1nc2ccccc2n1Cc1ccccc1,-28,-1,-5%,-2,0.9,
c1ccc(-c2cc(-c3ccccc3)on2)cc1,x,3,-2%,x,1.0,
COC(=O)c1ccc(Cn2nnc3c(=O)[nH]c(C4CCCN(S(=O)(=O)c5cccc(Cl)c5)C4)nc32)cc1 (stereo not given),x,-9,x,x,3.1,
CC(C)CC(=O)N1CCN(S(=O)(=O)c2ccc(Cl)cc2)CC1,x,-2,-6%,7,-1.2,
CCCn1c2ccc(C)cc2c2nnc(SCCN3CCOCC3)nc21,x,7,x,x,1.2,
CCOC(=O)C(NC(=O)c1ccccc1)=C(C)C,-1,-8,-9%,5,-3.1,
CCN(CC)C(=O)CN1C(=O)NC2(CCc3ccccc3C2)C1=O (stereo not given),x,-2,-6%,-4,-0.7,
CCS(=O)(=O)NCCCc1ccccc1,-12,-3,2%,7,-0.5,
COCCN(CCOC)C(=O)CN1C(=O)NC(Cc2c[nH]c3ccccc23)C1=O (stereo not given),x,-12,x,x,-0.9,
Cc1cc(C)c(S(=O)(=O)N2CCCC(C(=O)NCCC3=CCCCC3)C2)c(C)c1 (stereo not given),19,-6,3%,-1,1.2,
Cc1ccc(S(=O)(=O)Nn2c(O)c(C=C3N=c4ccccc4=N3)sc2=S)cc1,x,-2,-15%,x,-1.5,
Cc1cccc(-n2nc3c(c2NC(=O)C2CC2)CS(=O)(=O)C3)c1C,x,9,x,x,-0.6,
O=c1oc2ccccc2c2[nH]ccc12,x,1,-6%,0,-0.2,

# Screens: PubChem BioAssay, several laboratories

# These rows are one share of the data; count on the stated rates, not on these rows.
